Screening data (PubChem)
miR-21 FLuc = raises the signal of a miR-21 reporter. HeLa miR-21 FLuc reporter, luciferase, 48 h. Potency, µM (titrated, usually from 38.3 µM), for the others: at the highest dose reporter change, positive = more light. 340,000 tested, under 10 active. AID 2288; active = well fitted rising curve with a large enough effect; inconclusive = small, poorly fitted or top-dose-only effect; inactive = no such curve, though single readings can be large or run the other way;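 note: % of control where 0% means no effect; miR-21 action dims this reporter so a rising signal means less miR-21 action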
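Luminescence from a firefly luciferase reporter carrying a miR-21 binding site downstream, stably expressed under a CMV promoter in HeLa cells that make miR-21 endogenously, reports miRNA modulation after 48 h compound exposure up to approximately 40uM final.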
* hit, by the source's call. Only part of the results is shown; count on the stated rates, not on these rows.

COC(=O)c1cc2oc3ccccc3c2n1Cc1nc(-c2ccccc2C)oc1C was read as miR-21 FLuc -3%.
`CCOC(=O)c1c(C)oc2nc(C)nc(NCCc3ccc(SC)cc3)c12` gave miR-21 FLuc -6%.
`COc1ccc2c(c1)CC(C(=O)NCCCN1CCN(c3cccc(Cl)c3)CC1)CO2` (stereo not given) gave miR-21 FLuc 10%.
For COC(=O)CS(=O)(=O)c1nc2ccccc2nc1N1CCCCC1 the results were miR-21 FLuc 7%.
For Cc1ccc2oc(=O)n(CCNC(=O)Nc3ccccc3Cl)c2c1 the results were miR-21 FLuc 1%.
`CC(C)COc1ccc(C(=O)Nc2onc3c2CCCC3)cc1` gave miR-21 FLuc inconclusive.
`Clc1ccccc1N1CCN(Cc2nnc(-c3ccccc3)o2)CC1` gave miR-21 FLuc 0%.
Screening Cc1ccc(CNC(=O)CSc2nc3ccccc3nc2Cc2ccc(C)cc2)cc1 returned miR-21 FLuc 3%.
O=C(NCCSc1c(-c2ccc(Br)cc2)[nH]c2ccccc12)c1ccc(S(=O)(=O)N2CCOCC2)cc1 was read as miR-21 FLuc inconclusive.
`COc1cc(NC(=O)c2sc3nc4n(c(=O)c3c2C)CCCCC4)cc(OC)c1OC` gave miR-21 FLuc 0%.
Screening CC(C)CN(CC(C)C)S(=O)(=O)c1ccc(C(=O)Nc2sc3c(c2C(N)=O)CCN(C(C)C)C3)cc1 returned miR-21 FLuc 12%.
`CCOc1ccccc1CNC(=O)c1cnn(-c2ccc(C)cc2)c1-n1cccc1` gave miR-21 FLuc inconclusive.
`COc1ccc(OC)c(NC(=O)c2sc3nc4c(cc3c2N)CCCCCC4)c1` gave miR-21 FLuc -36%.
O=C(CSC1=Nc2ccccc2N=C(c2ccc(F)cc2)C1)Nc1ccc(Cl)cc1 was read as miR-21 FLuc -8%.
Screening CCN(c1ccccc1)c1ccc2cc(S(=O)(=O)N3CCCC3)ccc2n1 returned miR-21 FLuc 3%.
Cc1cc(C)c(NC(=O)CSc2nc(-c3ccc(F)cc3)nc3c2Cc2c(CO)cnc(C)c2O3)c(C)c1 was read as miR-21 FLuc 4%.
`Cc1ccccc1C(=O)Nc1sc2c(c1C(=O)N1CCCCC1)CCC(C(C)(C)C)C2` (stereo not given) gave miR-21 FLuc -2%.
Cc1cccc(NC(=O)C2CCCN(S(=O)(=O)c3ccc4c(c3)CCCC(=O)N4)C2)c1 (stereo not given) was read as miR-21 FLuc 1%.
For CN(C)c1ccc(CNC(=O)C2COc3ccccc3C2)cc1 (stereo not given) the results were miR-21 FLuc -3%.
For COc1ccc(Cl)cc1NC(=O)Cn1c2ncccc2c(=O)n1-c1ccc(C)c(C)c1 the results were miR-21 FLuc -2%.
For CCn1c(=N)c(C(=O)NCc2ccccc2)cc2c(=O)n3cccc(C)c3nc21 the results were miR-21 FLuc -3%.
Screening CCOc1nc(NC(=O)NS(=O)(=O)Oc2cccc(F)c2)nc(-c2ccccc2)n1 returned miR-21 FLuc -21%.
For COc1ccc(NC(=O)c2cc(S(=O)(=O)N3CCCCCC3)cn2C)cc1Cl the results were miR-21 FLuc -3%.
For Cc1ccc(NC(=O)C(c2ccccc2)N2Cc3ccccc3C2=O)cc1Cl (stereo not given) the results were miR-21 FLuc -5%.
For CCc1ccccc1NC(=O)C(=O)NCCc1sc(-c2cccc(F)c2)nc1C the results were miR-21 FLuc -4%.
COc1ccc(C)cc1NC(=O)Nc1cc(C(=O)NCc2ccc(C)cc2)ccc1N1CCCC1 was read as miR-21 FLuc -5%.
Screening CCOc1ccc(Nc2nc(C)c(NC(=O)c3cccc(OC)c3)c(Nc3ccc(OCC)cc3)n2)cc1 returned miR-21 FLuc 24%.
CCOc1ccccc1CNC(=O)c1ccc2nc(Cc3ccc(OC)cc3)oc2c1 was read as miR-21 FLuc 1%.
`Cc1c(Cl)cccc1NC(=O)Cn1nnc2sc3c(c2c1=O)CCCC3` gave miR-21 FLuc 7%.
Screening COc1ccc(CCNC(=O)CSc2cn(CCNC(=O)c3ccc(OC)c(OC)c3)c3ccccc23)cc1OC returned miR-21 FLuc 17%.
For COc1cc2c(=O)c(C(=O)c3ccc(C)c(C)c3)cn(Cc3ccc(F)cc3)c2cc1OC the results were miR-21 FLuc 2%.
Cc1ccc(CNC(=O)Cn2c(=O)ccc3cc(S(=O)(=O)N4CCC(C)CC4)ccc32)cc1 was read as miR-21 FLuc -2%.
For CC(C)c1ccc(S(=O)(=O)N2CCC(N3CCN(Cc4ccccc4)C(=O)C3=O)CC2)cc1 the results were miR-21 FLuc 6%.
O=C(Cn1ccn(-c2ccc(F)cc2)c(=O)c1=O)Nc1ccccc1C(F)(F)F was read as miR-21 FLuc 1%.
`Cc1ccc(OCC(=O)N(c2ccc(C)cc2)S(=O)(=O)c2ccc(Cl)cc2)cc1` gave miR-21 FLuc 13%.
For COc1ccc(CCNC(=O)C2CCN(Cc3nc(-c4ccc(OC)c(OC)c4)oc3C)CC2)cc1OC the results were miR-21 FLuc 1%.
CCS(=O)(=O)c1ncc(Cl)c(C(=O)N2CCN(c3ccc(OC)cc3)CC2)n1 was read as miR-21 FLuc inconclusive.
For O=C(O)c1ccc2nc(-c3cc4cc(Cl)ccc4oc3=O)[nH]c2c1 the results were miR-21 FLuc -14%.
Screening Cc1ccc(CNC(=O)c2cc3c(s2)-c2c(C)cccc2OC3)cc1 returned miR-21 FLuc -21%.
`Cc1cc(C)c(NS(=O)(=O)c2ccc(-c3coc(C)n3)cc2)c(C)c1` gave miR-21 FLuc 4%.
Screening COc1ccc2c(c1)sc1ncc(C(=O)NCc3ccc(OC(C)C)cc3)c(=O)n12 returned miR-21 FLuc 0%.
Screening COc1ccccc1CCNC(=O)CCc1c(C)c2cc3c(C)c(C)oc3cc2oc1=O returned miR-21 FLuc -14%.
For O=C(Nc1cccc(F)c1)c1ccc(-c2ccccc2)s1 the results were miR-21 FLuc -45%.
Screening CC(=O)N1CCc2c(sc3c2c(=O)n(-c2ccccc2)c(=O)n3CC(=O)Nc2ccccc2C)C1 returned miR-21 FLuc -1%.
`CCOc1ccc(C(=O)N2CCC(c3nc(-c4ccc(S(=O)(=O)N5CCCC5)cc4)no3)CC2)cc1` gave miR-21 FLuc inconclusive.

Reprinted from the part before: 4 entries; new compounds follow.
Screening COc1ccccc1CCNC(=O)CCc1c(C)c2cc3c(C)c(C)oc3cc2oc1=O returned miR-21 FLuc -14%.
For O=C(Nc1cccc(F)c1)c1ccc(-c2ccccc2)s1 the results were miR-21 FLuc -45%.
Screening CC(=O)N1CCc2c(sc3c2c(=O)n(-c2ccccc2)c(=O)n3CC(=O)Nc2ccccc2C)C1 returned miR-21 FLuc -1%.
`CCOc1ccc(C(=O)N2CCC(c3nc(-c4ccc(S(=O)(=O)N5CCCC5)cc4)no3)CC2)cc1` gave miR-21 FLuc inconclusive.
`Cc1cc(=O)n(CC(=O)Nc2ccc(Cl)c(Cl)c2)c(-n2nc(C)cc2C)n1` gave miR-21 FLuc -7%.
CCC(Cn1nnc2ccccc2c1=O)NC(=O)Nc1ccccc1Cl (stereo not given) was read as miR-21 FLuc 6%.
Cc1ccc2c(c1)c(=O)c1ccccc1n2CCCC(=O)Nc1ccc(C)c(F)c1 was read as miR-21 FLuc -8%.
CCC(C)NC(=O)C1CCN(C(=O)c2cc3sccc3n2Cc2ccc(Cl)cc2)CC1 (stereo not given) was read as miR-21 FLuc inconclusive.
CCOC(=O)C1CCN(C(=O)C2COc3ccccc3C2)CC1 (stereo not given) was read as miR-21 FLuc 1%.
`COc1ccccc1NC(=O)N1CCC(CN2CCc3ccccc3C2)CC1` gave miR-21 FLuc -4%.
COc1ccc(NS(=O)(=O)c2cc3c4c(c2)CC(=O)N4CCC3)cc1Cl was read as miR-21 FLuc 1%.
`COc1ccc(-c2ccc(CNCCCSc3nnnn3C)o2)cc1Cl` gave miR-21 FLuc -20%.
For COc1ccccc1-c1nc2c(c(SCc3cccc(Cl)c3)n1)Cc1c(CO)cnc(C)c1O2 the results were miR-21 FLuc -6%.
Screening CCOC(=O)c1ccc(NC2=CC(c3ccc(O)c(OCC)c3)N(c3ccc(C(=O)OCC)cc3)C2=O)cc1 (stereo not given) returned miR-21 FLuc -3%.
For COc1ccc(CCNC(=O)Cn2cc(C(=O)c3ccc(F)cc3)c(=O)c3ccc(C)nc32)cc1OC the results were miR-21 FLuc 3%.
CCc1ccc(S(=O)(=O)c2nnn3c2nc(N2CCCC(C)C2)c2cc(Cl)ccc23)cc1 (stereo not given) was read as miR-21 FLuc 4%.
Screening CN(C(=O)CSc1nc2ccccc2n1CC(=O)N(C)c1ccc(F)cc1)c1ccccc1 returned miR-21 FLuc 8%.
COCCNC(=O)CCCn1c(=O)[nH]c2ccsc2c1=O was read as miR-21 FLuc 1%.
Screening COc1ccc(NC(=O)c2c(NC(=O)c3cccc(C)c3)sc3c2CCCC3)cc1 returned miR-21 FLuc -1%.
CCn1cc(C2N3CC4(CC)CN2CC(CC)(C3)C4=O)c2ccccc21 (stereo not given) was read as miR-21 FLuc 5%.
Screening CC(OC(=O)c1ccc(Cl)c(S(=O)(=O)N2CCCC2)c1)C(=O)NC1CCCCC1C (stereo not given) returned miR-21 FLuc 3%.
Screening Cn1c(C(=O)NCc2cccc(F)c2)cc2cc(S(=O)(=O)N3CCCCC3)ccc21 returned miR-21 FLuc 20%.
Screening Cc1ccc(C)c(N2CCN(C(=O)c3noc4c3CCCCC4)CC2)c1 returned miR-21 FLuc 29%.
Screening Cc1cc(NS(=O)(=O)c2ccc(NC(=O)c3ccccc3F)cc2)nc(C)n1 returned miR-21 FLuc -10%.
O=C(Cc1ccc(Br)cc1)Nc1ccc(S(=O)(=O)N2CCCC2)cc1 was read as miR-21 FLuc 15%.
`CCN(CC)S(=O)(=O)c1ccc2c(c1)c(=O)c(C(=O)N1CCN(c3ccccc3OC)CC1)cn2C` gave miR-21 FLuc -4%.
Cc1cc(C)c(NC(=O)CSc2ccnc(=O)[nH]2)c(C)c1 was read as miR-21 FLuc -1%.
`Cc1ccc(NC(=O)c2oc3ccccc3c2NC(=O)C2CCCCC2)cc1` gave miR-21 FLuc -8%.
Screening CCOC(=O)c1cc(-c2ccc(C)cc2)n(CC(=O)NC2CCCCCC2)c1C returned miR-21 FLuc -4%.
COc1ccc(NCc2cc3cc4c(cc3n(CC(=O)Nc3cc(C)ccc3C)c2=O)OCCO4)cc1 was read as miR-21 FLuc 8%.
Screening Cc1ccc(NC(=O)CN2C(=O)CC(c3ccc(C)c(C)c3)=Nc3ccccc32)cc1 returned miR-21 FLuc 4%.
Screening COc1cc(OC)c(Nc2ncnc3onc(-c4cccc(Cl)c4)c23)cc1Cl returned miR-21 FLuc 0%.
Screening Cc1cccc(-c2nc3scc(CCNS(=O)(=O)c4ccc(F)cc4C)n3n2)c1 returned miR-21 FLuc 10%.
COc1ccc(NC(=O)CCNS(=O)(=O)c2ccc3c(c2)CCCC(=O)N3)cc1Cl was read as miR-21 FLuc -4%.

Five compounds drawn at random from the list so far, as already listed:
Screening CCOC(=O)c1cc(-c2ccc(C)cc2)n(CC(=O)NC2CCCCCC2)c1C returned miR-21 FLuc -4%.
Screening Cc1ccc(NC(=O)CN2C(=O)CC(c3ccc(C)c(C)c3)=Nc3ccccc32)cc1 returned miR-21 FLuc 4%.
O=C(Cc1ccc(Br)cc1)Nc1ccc(S(=O)(=O)N2CCCC2)cc1 was read as miR-21 FLuc 15%.
Screening COc1cc(OC)c(Nc2ncnc3onc(-c4cccc(Cl)c4)c23)cc1Cl returned miR-21 FLuc 0%.
Screening CC(OC(=O)c1ccc(Cl)c(S(=O)(=O)N2CCCC2)c1)C(=O)NC1CCCCC1C (stereo not given) returned miR-21 FLuc 3%.

Remaining list, next part:
`COc1cccc(CNC(=O)c2sc3nc[nH]c(=O)c3c2C)c1` gave miR-21 FLuc 2%.
For CS(=O)(=O)c1ncc(Cl)c(C(=O)Nc2c(C(=O)c3ccc(Cl)cc3)oc3ccccc23)n1 the results were miR-21 FLuc -3%.
Screening CC(C)(C)C(=O)Nc1ccc(Cl)c(-c2nc3ccccc3[nH]2)c1 returned miR-21 FLuc 1%.
Screening O=c1c(S(=O)(=O)c2ccccc2)cn(Cc2cccc(F)c2)c2cc(N3CCOCC3)c(F)cc12 returned miR-21 FLuc 8%.
For CCCCN(C)c1ncnc2c1cnn2-c1cccc(Cl)c1 the results were miR-21 FLuc -59%.
`COc1ccc(-n2nc(C(=O)N3CCN(c4cccc(C)c4)C(C)C3)c3c4ccccc4n(C)c3c2=O)cc1Cl` (stereo not given) gave miR-21 FLuc -7%.
`Cc1ccc(NC(=O)Cn2ccn(-c3ccccc3)c(=O)c2=O)cc1` gave miR-21 FLuc 19%.
Screening CCCCCCNc1ncnc2c1sc1nc(N3CCOCC3)c3c(c12)CCCC3 returned miR-21 FLuc -8%.
COc1cccc(-n2ccnc2SCC(=O)Nc2nc3ccc(C)cc3s2)c1 was read as miR-21 FLuc -4%.
Screening COc1ccc2c(c1)CCc1c(C(=O)Nc3c(C)nn(Cc4ccccc4C)c3C)noc1-2 returned miR-21 FLuc 23%.
Screening COc1cccc(-n2c(=O)c3sc4ccccc4c3n(CC(=O)Nc3ccccc3OC)c2=O)c1 returned miR-21 FLuc 2%.
Screening COc1ccc(NC(=O)c2c(NC(=O)C(F)(F)F)sc3c2CCCCC3)cc1 returned miR-21 FLuc inconclusive.
Screening COc1cc(C(=O)Nc2cc(C)c(O)c(-c3nc4cc(Cl)ccc4o3)c2)cc(OC)c1OC returned miR-21 FLuc 0%.
`CCOC(=O)c1c(NC(=O)/C=C/c2ccc(Cl)cc2)sc2c1CCC(C)C2` (stereo not given) gave miR-21 FLuc -6%.
CC(C)c1ccc(NC(=O)C2CCCN(S(=O)(=O)c3cccc4nsnc34)C2)cc1 (stereo not given) was read as miR-21 FLuc 5%.
CC(C)c1ccc(N2C(=O)CSC23C(=O)N(Cc2cccc(F)c2)c2ccccc23)cc1 (stereo not given) was read as miR-21 FLuc -12%.
For Cc1ccc(OCC(=O)Nc2nonc2-c2ccc(C)c(C)c2)cc1C the results were miR-21 FLuc -4%.
